HNF4A DNA FP: change in binding of human HNF4 alpha to DNA | hit rate 0.3% among 360,000 | HNF4a-FITC DNA binding, fluorescence polarization, 1 h | activity change, % at 10 µM | P41235; in the data active = activity change above about 30%, passing the limit was not always enough;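 also: controls were the assay level and a saturating level of protein; the project sought stronger binding though the title names inhibitors; some compounds called inactive have numbers as strong as hits; positive values seem to mean higher polarization but the record does not say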
E coli growth: blocks Escherichia coli growth | OD600, 23 h; hits give low values | OD600 absorbance (no concentration beside the values) | hit rate 0.21% among 330,000;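 active = OD600 absorbance below the run mean of sample wells minus 3.6 SD, in any replicate, cut at about 0.56 in these data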;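 also: stock transfer was 300 nL into about 60 µL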
MLL AF4-AF9 inh: blocks AF4 peptide binding to human AF9; P42568; AlphaScreen, biotin-AF4 peptide binding to FLAG-AF9; inhibition, % at 10 µM; hit rate 0.47% among 350,000; AID 651704;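 active = every replicate reaching a set inhibition limit, whatever the replicate mean, cut at about 25% in these data; inconclusive = mean inhibition reaches that limit but some replicates miss it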;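 also: 0% = plate neutral control median and 100% = total signal loss; the record names both 10 and 1 µM as test concentration; the first replicate is given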
Target sequence (P42568 whole entry, looked up): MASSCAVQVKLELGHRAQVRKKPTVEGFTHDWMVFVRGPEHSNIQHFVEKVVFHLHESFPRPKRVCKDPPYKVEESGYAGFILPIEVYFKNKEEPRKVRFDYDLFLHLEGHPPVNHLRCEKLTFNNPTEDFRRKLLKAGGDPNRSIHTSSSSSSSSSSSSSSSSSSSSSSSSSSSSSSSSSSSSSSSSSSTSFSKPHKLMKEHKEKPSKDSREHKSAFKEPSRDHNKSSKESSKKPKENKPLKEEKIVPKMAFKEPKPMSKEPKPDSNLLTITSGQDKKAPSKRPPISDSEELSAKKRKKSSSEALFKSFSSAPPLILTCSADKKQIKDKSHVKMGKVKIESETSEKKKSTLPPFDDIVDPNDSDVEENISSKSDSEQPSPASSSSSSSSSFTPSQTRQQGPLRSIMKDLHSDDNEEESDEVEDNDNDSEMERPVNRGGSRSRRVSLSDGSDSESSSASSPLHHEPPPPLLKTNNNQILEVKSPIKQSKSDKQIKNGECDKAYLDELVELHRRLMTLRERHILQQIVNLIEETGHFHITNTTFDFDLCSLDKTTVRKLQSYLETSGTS
FGF22 binding: FGF22 (human) thermal shift binding. Q9HCT0. recombinant FGF22 thermal shift, SYPRO orange fluorescence; percent of sucrose octasulfate shift, DMSO zero. calls only at 9.99 µM. hit rate 1.5% among 340,000. AID 651658;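 active = melting point raised past a set limit in the mean and every replicate; inconclusive = no clear call; three in four hits are not shown here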
Target sequence (Q9HCT0 whole entry, looked up): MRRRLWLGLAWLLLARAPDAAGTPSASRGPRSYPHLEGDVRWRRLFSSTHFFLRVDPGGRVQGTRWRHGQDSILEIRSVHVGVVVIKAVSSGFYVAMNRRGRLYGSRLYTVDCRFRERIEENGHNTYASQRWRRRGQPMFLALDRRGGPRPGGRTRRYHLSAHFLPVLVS
Vif A3G: inhibitors of Vif binding to APOBEC3G peptide, primary screen, biochemical, TR-FRET, GST-Vif 1-94, biotin-A3G peptide, dose response retest (AID 1117319); TR-FRET GST-Vif / biotin-A3G peptide binding; higher % means a stronger effect; test concentration not given here; strong numbers were not always called active; one-dose inhibition, %; IC50 in µM for titrated hits; hit rate 0.57% among 260,000;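 active = above the screen mean plus three standard deviations and confirmed in dose response; inconclusive = results disagree or hit not tested in dose response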;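 also: Vif residues 1-94 fused to GST binding biotinylated APOBEC3G peptide 110-148; 0% = full assay without inhibitor and 100% = GST in place of GST-Vif; retest series ran down from 100 µM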
RanGTP-Imp inh: disruptors of Ran-importin-beta complex formation – biochemical, FRET, CFP-Ran, YFP-importin-beta, homogeneous, primary screen; cell-free CFP-Ran/YFP-importin-beta FRET ratio; AID 2216; inhibition, % (test concentration not listed); hit rate 1.1% among 300,000;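 active = most replicates above 15%; inconclusive = exactly half above 15%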;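 also: 0% = DMSO wells and 100% = Ran loaded with GDP instead of GTP; wells of about 40 µL received 100 nL stock; the first replicate is given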
UCH37 DUB inh: blocks the human deubiquitinase UCH37. hit rate 0.33% among 330,000. purified proteasome/UCH37, Ub-AMC cleavage fluorescence. Q9Y5K5. inhibition, % (test concentration not listed). AID 588478;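 active = mean of two replicates above 20%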;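 also: 0% = compound-free wells with enzyme and 100% = wells lacking proteasome; stock transfer was 100 nL into about 20 µL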
Target sequence (Q9Y5K5 whole entry, looked up): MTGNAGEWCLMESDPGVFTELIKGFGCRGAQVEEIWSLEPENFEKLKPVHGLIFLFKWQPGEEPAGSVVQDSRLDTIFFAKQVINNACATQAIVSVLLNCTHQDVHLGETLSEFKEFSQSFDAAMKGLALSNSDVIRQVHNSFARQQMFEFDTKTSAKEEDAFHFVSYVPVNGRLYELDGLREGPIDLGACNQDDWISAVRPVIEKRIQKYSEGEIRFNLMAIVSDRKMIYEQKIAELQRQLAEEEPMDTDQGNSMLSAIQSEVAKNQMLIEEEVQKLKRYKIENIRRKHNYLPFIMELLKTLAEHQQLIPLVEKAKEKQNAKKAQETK
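Material: human UCH37 enzyme supplied as purified proteasome complex / Amount: 0.15 nM proteasome as dispensed / Buffer or medium: pH 7.4 Tris-HCl (50 mM) with ovalbumin, ATP-MgCl2, DTT / Times: preincubation 30 min, reaction 25 min, room temperature / Technique: AMC fluorescence from Ub-AMC cleavage, excitation 355 nm, emission 460 nm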
An asterisk follows results filed as active; i = inactive; ? = inconclusive; nt = not tested or not shown; & = joins results of further samples. Some of the compounds tested; the hit share may differ from the screen's.

SMILES	HNF4A DNA FP	E coli growth	MLL AF4-AF9 inh	FGF22 binding	Vif A3G	RanGTP-Imp inh	UCH37 DUB inh
COc1ccc(NS(=O)(=O)c2ccc(N3CCOCC3)c(NC(=O)c3ccc(F)cc3)c2)cc1	3.5	0.72	1.8	i	19%	-2.6	5.4
N#CCCN(C(=O)Nc1ccccc1)c1ccccc1	3.0	0.68	nt	nt	21%	0.9	nt
O=C(Nc1cccc(C(F)(F)F)c1)c1ccc(Cn2cc(Br)cn2)o1	0.4	0.65	nt	nt	-3%	6.3	1.8
Cc1cccc(NC(=O)C2CCCN2S(=O)(=O)c2ccc(F)cc2)c1C (stereo unspecified)	-1.1	0.72	nt	nt	-3%	4.4	3.5
COc1cc(OC)c(NC(=S)Nc2cccc(C)c2)cc1Cl	3.6	0.73	nt	nt	nt	0.7	0.7
CCOC(=O)C1CCN(C(=O)Cn2nc(CC)n3cccc3c2=O)CC1	-2.3	0.7	-1.2	i	nt	0.4	2.2
O=C(NC1CC1)c1[nH]c(C(F)(F)F)nc1-c1ccccc1	-4.5	nt	-2.4	i	nt	nt	nt
CC(=O)c1ccc(N2CCN(C(=O)C3CCN(S(=O)(=O)c4ccc5c(c4)CC(C)N5C(C)=O)CC3)CC2)cc1 (stereo unspecified)	2.6	0.65	0.8	i	-1%	-1.8	0.8
Cc1cccc(Nc2nnc(SCC(=O)Nc3ccccc3[N+](=O)[O-])s2)c1C	1.4	0.7	nt	nt	1%	3.2	0.6
NC1=NC(=O)/C(=C\c2ccsc2)S1	5.2	nt	-2.3	i	-2%	0.7	nt
CC(C)NC(=O)CN1CCN(C(c2ccnc3ccccc23)c2nnnn2-c2ccc3c(c2)OCCO3)CC1 (stereo unspecified)	-3.1	nt	-0.8	i	nt	nt	nt
CC[C@]12CCCN3CCc4c(n(c5ccccc45)C(=O)C1)C32 (stereo partly specified)	nt	0.66&0.74	nt	nt	3%	0.0	0.5
Cn1cc(S(=O)(=O)NC[C@H]2O[C@@H](n3cnc4c(N)ncnc43)[C@H](O)[C@@H]2O)cn1	-1.8	0.68	-1.8	i	8%	nt	0.0
C/C=C/C=C/C(=O)N1CC2(CC(c3cccc(NC(=O)CCCCC)c3)=NO2)C[C@H]1C(N)=O (stereo partly specified)	0.0	nt	-7.6	i	3%	-1.6	1.3
Cc1[nH]n(-c2ccccc2)c(=O)c1C(=O)c1ccccc1	-15	0.71	-0.3	i	-3%	1.6	8.2
O=C(COc1cccc2ccccc12)N/N=C/c1ccccc1OCc1ccc(C(=O)O)cc1	-0.2	nt	1.5	i	?	0.3	nt
O=C(Nc1ccccc1)Nc1ccc(Br)c(Cl)c1	-3.3	0.58	nt	nt	nt	-1.6	3.4
COc1cccc(-c2cc3c(-n4cccc4)ncnc3o2)c1	1.2	0.71	nt	nt	3%	-3.7	-123
CCCc1nc2c(s1)CCc1onc(-c3ccc(Cl)cc3)c1-2	-5.0	0.69	1.2	i	nt	?	1.0
COc1ccccc1NS(=O)(=O)c1cc(C(=O)NCCCN2CCCC2=O)ccc1C	1.0	0.65	-1.9	i	nt	nt	3.7
CCN(CC)C(=O)CSc1nnc(CCNC(=O)OC(C)(C)C)o1	-0.2	0.67	nt	nt	-6%	2.4	1.7
COC(=O)c1[nH]c2ccccc2c1NC(=O)/C=C/c1ccc2c(c1)OCO2	-1.0	nt	-1.2	i	nt	-1.8	nt
O=C1CC[C@H](O)CCN1[C@H](CSc1ccc(Br)cc1)Cc1ccccc1	-0.9	nt	2.6	i	nt	nt	0.8
CCCCCCSc1cccc(-c2nc3ccc(Cl)cn3c2NCc2ccccc2)c1	1.3&7.7	nt	2.6	i	nt	1.9	nt
CCOc1ncnc2c1sc1nc3c(cc12)COC(C)(C)C3	4.8	0.7	-2.9	i	nt	nt	1.1
O=C(NC1(C(=O)NC2CCCCC2)CCCCC1)c1ccc2c(c1)OCO2	2.7	0.72	nt	nt	?	3.6	-0.2
CCC(=O)N1CCN(c2ccc(Cl)cc2NC(=O)Cc2ccc(Cl)cc2)CC1	2.9	0.67	nt	nt	-10%	-2.8	1.9
CCOc1ccccc1CN1CCNC(=O)C1CC(=O)NCCc1ccccn1 (stereo unspecified)	-4.8	0.67	1.7	i	-1%	2.0	-0.8
COC(=O)c1[nH]c(C)c(/C(O)=C2\C(=O)C(=O)N(CCN3CCOCC3)C2c2cccnc2)c1C (stereo unspecified)	2.0	0.71	nt	nt	4%	-1.9	12
CCOC(=O)c1c(Nc2ccccc2)sc(/C=C2\C=Nc3ccccc32)c1O	27	0.75	nt	nt	2%	43*	2.6
COc1ccccc1CNCC(O)Cn1c2ccccc2c2ccccc21 (stereo unspecified)	2.4	0.66	nt	nt	-1%	nt	3.1
O=C(Cn1cc2c(n1)CCCC2)NCC1CCCO1 (stereo unspecified)	-3.1	0.78	-1.8	i	1%	5.9	-0.6
O=C(COC(=O)c1ccco1)c1ccc(F)cc1	-0.3	0.64	2.5	i	nt	1.1	2.8
CC(C)(C)n1nnnc1C1c2ccccc2C(=O)N1CCc1c[nH]c2ccccc12 (stereo unspecified)	-0.8	nt	1.9	i	nt	nt	nt
Cc1ccc(S(=O)(=O)N2CCOCC2)cc1NC(=O)COC(=O)COc1ccccc1[N+](=O)[O-]	4.5	0.66	-2.7	i	-6%	nt	2.2
Cc1ccc2c(c1)N(CC(=O)N1CCOCC1)C(=O)CO2	-1.8	0.64	-4.0	i	27%	1.1	1.6
CSc1ccccc1NC(=O)c1ccccc1C	3.3	0.68	-1.6	i	-3%	-2.2	0.2
Cc1cc(SCC(=O)N/N=C/c2ccc(O)cc2O)nc2ccccc12	0.5	nt	-1.8	i	7%	1.8	nt
Cc1ccc(NS(=O)(=O)c2cc3c4c(cccc4c2)C(=O)NC3=O)cc1	-1.3	0.69	-2.4	i	nt	5.8	-1.0
COC(=O)C1(C)CCCC2(C)C3CCC(C(C)C)C(CO)C3C(CO)CC12 (stereo unspecified)	-1.7	nt	0.0	i	10%	nt	nt
O=C(NCc1ccccc1)C(c1ccccc1)N(Cc1cccs1)C(=O)c1cnccn1 (stereo unspecified)	-4.4	0.67	nt	nt	-1%	-0.1	1.8
CCN(Cc1ccccc1)C(=O)c1ccc2c(=O)n3c(nc2c1)CCC3	-2.4	nt	-2.2	i	nt	-3.0	nt
COc1ccc(NC(=O)CN(C)C(=O)c2c(-c3c(F)cccc3Cl)noc2C)cc1	-2.5	0.65	1.8	i	-4%	5.9	2.4
Cc1cccc(OCCC(=O)N(C)CC(=O)Nc2cccc3ccccc23)c1	3.3	0.7	-1.0	i	nt	6.9	0.4
CC12CN3CC(C)(CN(C1)C3c1cc3ccccc3[nH]1)C2=O (stereo unspecified)	-8.1	0.7	nt	nt	-6%	3.4	1.7
CC1(C(=O)NS(=O)(=O)c2ccc(F)cc2F)CCN1C(=O)CC1CCCC1 (stereo unspecified)	-4.4	nt	-1.0	i	nt	nt	nt
Cc1ccc(S(=O)(=O)N(C)C)cc1NC(=O)COC(=O)/C=C/c1cnc2ccccc2n1	-2.4	0.71	-0.5	i	-4%	0.8	5.9
COc1ccc(C(=O)NNC(=S)NC(=O)c2ccc(F)cc2)cc1Br	-0.8	0.58	-1.1	i	nt	?	2.6
S=c1[nH]nc(-c2ccccn2)n1/N=C/c1ccccc1	-1.0	nt	-7.0	i	nt	3.6	nt
Cc1ccc(-n2c(Cn3cnc4ccccc43)nnc2SCC(=O)O)cc1	0.9	0.72	nt	nt	18%	-4.7	4.2
O=C(NNc1nc2ccccc2s1)c1ccc(F)cc1	1.6	0.59	2.0	i	nt	-0.1	1.9
Cc1cc(C)cc(NC(=O)CCCN2C(=O)C(c3ccccc3)Oc3cccnc32)c1 (stereo unspecified)	2.5	0.69	-0.3	i	nt	0.1	0.1
CCOC(=O)C1(Cc2ccc(OC)cc2)CCN(C(=O)c2cc3ccccc3[nH]2)CC1	1.2	0.71	nt	nt	-3%	8.4	-2.1
COC(=O)C1=C(CSc2nc3ccccc3o2)NC(=O)NC1c1cc(C)ccc1C (stereo unspecified)	-0.6	0.73	nt	nt	5%	2.6	2.2
COc1ccc(NC(=S)N(CCC(C)C)C2CCN(C(C)C)CC2)cc1Cl	0.8	0.66	0.3	i	-22%	8.7	-0.1
O=C(C1=C[C@H](c2ccc3c(c2)OCO3)C[C@H](OCCCCO)O1)N1CCN(Cc2ccccc2)CC1	-0.8	0.79	-0.2&-1.6	i	11%	-2.7	-1.1
CCC(CC)c1nnc(NC(=O)C2CSC3(C)CCC(=O)N23)s1 (stereo unspecified)	-2.9	0.66	-27	i	-3%	-0.6	-4.2
N/C(COc1ccc(Cl)cc1Cl)=N\NS(=O)(=O)c1ccccc1	-1.3	0.67	nt	nt	-6%	0.3	1.5
COc1ccc(C(=O)NCCNc2nc3c(C)cccc3cc2C#N)cc1	3.1	0.71	-4.6	i	-26%	36*	-49
CCOc1ccc(C(=O)OCC(=O)NCCNC(=O)COC(=O)c2ccc(OCC)cc2)cc1	-3.4	0.69	-0.5	i	2%	?	1.2

Marked active in RanGTP-Imp inh, among the entries above:
SMILES	HNF4A DNA FP	E coli growth	MLL AF4-AF9 inh	FGF22 binding	Vif A3G	RanGTP-Imp inh	UCH37 DUB inh
CCOC(=O)c1c(Nc2ccccc2)sc(/C=C2\C=Nc3ccccc32)c1O	27	0.75	nt	nt	2%	43*	2.6
COc1ccc(C(=O)NCCNc2nc3c(C)cccc3cc2C#N)cc1	3.1	0.71	-4.6	i	-26%	36*	-49

Remaining list, next part:
SMILES	HNF4A DNA FP	E coli growth	MLL AF4-AF9 inh	FGF22 binding	Vif A3G	RanGTP-Imp inh	UCH37 DUB inh
COc1ccccc1C(=O)N1CCN(C(=O)c2ccncc2)CC1	-0.8	0.82	nt	nt	6%	5.3	3.1
Cc1cccc(NC(=O)c2nc[nH]c2C(=O)Nc2ccccc2F)c1	4.2	nt	-1.6	i	-1%	nt	nt
CC(C)(C)C1CCC(=NNS(=O)(=O)c2ccc(Br)cc2)CC1 (stereo unspecified)	-3.3	0.7	nt	nt	-1%	-1.1	6.4
O=C(CCS(=O)(=O)c1cccc2nonc12)NC1CCCCCC1	2.1	0.69	nt	nt	0%	-3.5	0.4
N#CC(c1ccc(Cl)cc1)c1nc2ccccc2nc1C(F)(F)F (stereo unspecified)	2.4	0.78	nt	nt	-2%	6.0	3.7
Nc1ncnc2c1ncn2[C@@H]1O[C@H](C(=O)N2CCN(c3ccc(Cl)cn3)CC2)[C@@H](O)[C@H]1O	-1.8	nt	0.2	i	nt	nt	nt
NC(=O)Cc1ccc(C(=O)CSc2nnc(-c3ccncc3)n2C2CC2)s1	-9.5	0.68	-1.8	i	-3%	nt	6.0
COc1cccc(OC)c1C(=O)Nc1ccccc1C(=O)N1CCOCC1	1.3	0.76	nt	nt	0%	4.7	0.2
Cc1sc2nc(CSc3ccc([N+](=O)[O-])cc3)[nH]c(=O)c2c1C	nt	0.7	nt	nt	-15%	3.9	2.2
O=C(c1cccc2ccccc12)N1CCN(c2ccc([N+](=O)[O-])c(NCc3ccco3)c2)CC1	-0.6	0.78	5.3	i	-1%	2.3	8.2
O=C(OCC(=O)N1CCN(c2ccccc2)CC1)c1ccco1	0.1	0.69	nt	nt	-7%	-0.8	5.3
COc1ccc(S(=O)(=O)Nc2c(C)nc3nc(C)[nH]n3c2=O)cc1	-1.0	0.67	-0.7	nt	nt	3.6	1.6
COc1cccc(C(O)c2nc(-c3ccc(C)c(C)c3)cs2)c1 (stereo unspecified)	-1.8	nt	-2.4	i	nt	nt	nt
